# Bioassay records (PubChem BioAssay)
# PTK2B oligo ant: antagonists of human Pyk2 oligomerization | Q293 cells, Pyk2 FERM NanoBiT luminescence; active compounds read low | 99,000 tested, 0.83% active | AID 1347419 | z-score (the deposit names both 25 µM and 10 µM);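 active means Z-score of -3 or lower, scaled per plate to the spread of control and sample wells; inactive means z-score above -3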;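 further: negative z-score means lost luminescence so less FERM oligomerization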
# Ecoli WT expand: growth inhibitors of E. coli BW25113 wild type. OD600 absorbance. growth inhibition, % at 100 µM. 98,000 tested, 0.15% active. AID 710;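 active means growth inhibition above about 50% at one test dose, limit read from the data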;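 further: growth measured after 20 h incubation at 37 °C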
# PTPN22 act: activators of human LYP (PTPN22) phosphatase | Q9Y2R2 | recombinant LYP, DiFMUP fluorescence; 0 = plate median, 100 = signal doubled | activation, % at 2 µM | 96,000 tested, 0.11% active;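 active means activation at 2 µM above a set limit, the mean plus 5 SD, cut at about 37% in these data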
# Target sequence (Q9Y2R2 whole entry, looked up): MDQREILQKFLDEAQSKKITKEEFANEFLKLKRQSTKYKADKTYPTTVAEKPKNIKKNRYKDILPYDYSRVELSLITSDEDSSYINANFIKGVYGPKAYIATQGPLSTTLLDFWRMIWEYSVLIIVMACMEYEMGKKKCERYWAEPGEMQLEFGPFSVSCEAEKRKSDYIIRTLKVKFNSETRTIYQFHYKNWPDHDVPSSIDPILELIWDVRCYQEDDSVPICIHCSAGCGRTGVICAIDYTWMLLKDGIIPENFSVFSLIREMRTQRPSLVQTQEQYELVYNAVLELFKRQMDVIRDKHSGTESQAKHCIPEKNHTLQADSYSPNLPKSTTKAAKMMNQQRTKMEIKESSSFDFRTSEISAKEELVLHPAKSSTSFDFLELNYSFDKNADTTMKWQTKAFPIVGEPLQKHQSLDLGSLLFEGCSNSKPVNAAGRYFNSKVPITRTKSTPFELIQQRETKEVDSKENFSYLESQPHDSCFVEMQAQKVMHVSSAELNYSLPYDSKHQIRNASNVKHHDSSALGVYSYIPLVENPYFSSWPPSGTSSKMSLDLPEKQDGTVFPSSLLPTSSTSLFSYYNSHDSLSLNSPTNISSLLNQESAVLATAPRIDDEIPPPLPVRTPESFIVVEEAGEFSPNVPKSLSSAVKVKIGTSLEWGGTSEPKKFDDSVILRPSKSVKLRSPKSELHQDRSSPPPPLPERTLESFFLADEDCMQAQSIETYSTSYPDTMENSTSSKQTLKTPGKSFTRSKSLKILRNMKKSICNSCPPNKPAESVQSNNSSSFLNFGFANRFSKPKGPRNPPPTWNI
# PostGolgi yeast: growth inhibition of a yeast mutant, post-Golgi transport screen; AID 739; inhibition, % at 10 µM; post-Golgi transport phenotypic cell assay; 98,000 tested, 0.9% active;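 further: yeast cells grown in 1536-well plates; yeast grown about 18 h at 30C before absorbance read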
# PostGolgi ctrl: inhibits growth of the yeast control strain | 98,000 tested, 5% active | inhibition, % at 10 µM | efflux-deficient yeast background strain, growth absorbance A615, 16 h
# DAT uptake mod: changed human dopamine transporter uptake under cocaine IC80; LLC-PK1 hDAT cells, [14C]-dopamine uptake with cocaine IC80; actives deviate in either direction; B-score at 10 µM; 110,000 tested, 1.3% active; AID 449768;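 active means Z score or B-score, a plate-position-corrected score, falls beyond the plate's 99.7% confidence bounds, in either direction; inactive means both scores lie inside the 99.7% bounds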;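 further: scored against the spread of the other compound wells on the same plate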
# LYP inh 2: blocks human PTPN22 phosphatase activity; Q9Y2R2; recombinant LYP catalytic domain, DiFMUP fluorescence; inhibition, % at 2 µM; 96,000 tested, 0.21% active;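 active means inhibition at 2 µM at or above a set limit, the screen mean plus 3 SD, cut at about 24% in these data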;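 further: 0% = DMSO with enzyme and 100% = enzyme fully blocked by orthovanadate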
# * marks the source's active call; other numbers are inactive results; x = not tested or not shown. Unless noted, no stated cut-off is given here; in the data, active means inhibition above about 30%; inactive means the rest. Not all compounds are listed; the hit share may differ from the screen's.
SMILES,PTK2B oligo ant,Ecoli WT expand,PTPN22 act,PostGolgi yeast,PostGolgi ctrl,DAT uptake mod,LYP inh 2
COC(=O)c1cccc(C(=O)Oc2cccc(Br)c2)n1,-0.34,5.0,-1.5,8.5,-5.8,-0.275,-0.6
CC(C)C(NS(=O)(=O)c1cccs1)C(=O)Nc1nc(C(C)(C)C)cs1 (stereo not given),-1.97,14.0,-6.5,7.0,16.8,-0.816,4.6
Cc1ccc(OCCCN(C)C)c(Br)c1,-0.43,9.0,10.3,2.3,9.5,-0.0341,-12.4
Cc1ccc(-c2ccc(=O)n(CC(=O)NCCN(C)C)n2)cc1,0.91,7.0,14.5,-0.7,0.1,-0.281,-14.6
CCCC(O)(CCN1CCCCC1)c1ccc(OCC)cc1 (stereo not given),x,-3.0,0.6,-1.5,17.0,-0.746,-1.2
Cc1ccc(C(=O)N2CCN(c3ncccn3)CC2)o1,-0.89,0.0,3.8,18.7,9.9,0.166,-1.6
COc1ccc(OCc2nnc(SCC(=O)N3c4ccccc4Sc4ccc(Cl)cc43)o2)cc1,-0.11,-19.0,9.7,-1.4,6.8,-0.817,-5.5
O=C(/C=C/c1ccccc1Cl)Nc1ccncc1,0.79,10.0,5.7,-2.9,16.0,0.504,-3.4
COc1ccc2cc(CN(CCO)C(=O)c3ccc(Br)cc3)c(=O)[nH]c2c1,-0.01,3.0,-0.7,-3.2,5.9,0.0397,4.0
Cc1ccc(Oc2coc3cc(OC(=O)c4cccs4)ccc3c2=O)cc1,-1.14,-15.0,-0.2,-17.4,3.0,-0.129,4.3
Cc1c(N=Cc2ccc(Br)s2)cccc1[N+](=O)[O-],0.71,-13.0,-6.1,7.7,1.1,-0.676,8.1
NNC(=O)C=C1CCN(c2ncc(C(F)(F)F)cc2Cl)CC1,1.25,7.0,2.5,18.3,-5.5,-0.407,3.7
CCNC(=S)NNC(=O)c1ccoc1C,0.89,-4.0,7.9,4.3,3.7,-0.814,-5.3
Cc1ccc(C(=O)CSc2ncnc3sc4c(c23)CCCC4)cc1,0.75,-4.0,-0.8,3.3,10.2,-0.329,2.9
CC1(C)OC(=O)C(=CNn2cnc3ccccc3c2=O)C(=O)O1,-0.15,-2.0,3.6,5.1,3.4,0.016,-6.9
Cc1nn(CC(=O)N2CCOCC2)c(C)c1[N+](=O)[O-],1.18,4.0,-0.4,20.3,5.0,-1,3.0
Cc1ccc(/C=N/n2nnnc2N)cc1[N+](=O)[O-],0.29,5.0,-5.6,-7.7,1.6,-8.87*,9.5
Cc1cnc(C(=O)OCC(=O)Nc2ccc(Cl)cc2)cn1,0.3,7.0,2.3,16.8,-1.2,x,-5.5
Cc1ccc(C)c(NC(=S)c2ccccn2)c1,-0.23,6.0,4.5,0.9,1.4,1.12,-2.3
Cc1ccc(C)n1CCN1CCN(CC(=O)Nc2ccc(S(N)(=O)=O)cc2)CC1,-0.31,7.0,7.6,-1.5,36.5*,0.664,-9.7
Cc1c(NC(=O)/C(=C\c2ccccc2)NC(=O)c2ccccc2)c(=O)n(-c2ccccc2)n1C,-0.1,2.0,-4.5,-7.5,0.8,-8.77*,8.3
O=C1COc2ccc(OCc3ccc(F)cc3)cc21,0.55,-1.0,6.4,-6.0,1.2,-0.0552,-8.3
CCOC(=O)c1ccc(NC(=O)CSc2nc3c(c(=O)n2CC)SC(C)C3)cc1 (stereo not given),x,-10.0,x,11.2,13.9,0.511,x
CN(C)C(=O)CSc1nnc(Cc2ccc([N+](=O)[O-])cc2)o1,0.6,4.0,-10.3,-1.5,-3.8,-1.19,13.7
CSc1ccccc1NC(=O)c1cc(CC(C)C)on1,x,-6.0,x,-2.0,24.7,-0.165,x
CC(Sc1nc2ccccc2s1)C(=O)N1CCOCC1 (stereo not given),0.14,-3.0,0.2,-1.9,6.5,0.0788,-2.5
CCOC(=O)c1c(C)[nH]c(C(=O)C(C)Sc2ccc(Cl)cc2)c1C (stereo not given),0.71,-12.0,-0.1,7.7,28.8,0.659,1.8
COc1ccccc1OCCN1C(=O)S/C(=C\c2ccco2)C1=O,0.26,2.0,-7.7,-0.9,9.6,-0.681,9.6
O=c1[nH]c(CSc2nnc(-c3ccccc3)n2C2CCCCC2)nc2ccccc12,-1.46,1.0,-5.9,1.3,10.9,0.339,8.1
CN1C(=O)CC(NNC(=O)c2ccccc2)C1=O (stereo not given),0.39,0.0,19.6,7.7,16.4,-1.27,-17.2
COc1ccc(N2C(=O)CCC(C(=O)N3CCC(C(N)=O)CC3)C2c2ccc(F)cc2)cc1 (stereo not given),0.03,0.0,1.5,9.2,-4.1,-1.2,-3.3
Cc1cc(C)c2c(c1)C1C=CCC1C(c1ccc(S(=O)(=O)N3CCOCC3)cc1)N2 (stereo not given),0.2,1.0,-11.5,-0.6,-3.0,0.361,14.6
COc1cc(C2N(c3cc(C)on3)C(=O)C3CCCN32)cc(OC)c1OC (stereo not given),0.13,-5.0,9.7,-0.9,5.2,-0.345,-11.4
COc1cccc(N(C(=O)Cn2nnc(-c3cccs3)n2)C(C(=O)NC2CCCCC2)c2ccncc2)c1 (stereo not given),-0.6,-9.0,3.2,-13.4,22.9,x,-0.2
CC(C)CC(=O)Nc1ccccc1-c1nnn(CC(=O)N2CCc3ccccc3C2)n1,-0.42,-15.0,0.1,2.2,0.6,0.00273,-0.2
CCc1ccc(OCCNC(=O)c2cc(SC)ccc2Cl)cc1,-1.3,0.0,-13.8,2.9,0.7,x,13.5
Cc1cc(C)c2c(-n3cccc3)c(C(=O)NNS(=O)(=O)c3ccc(Br)cc3)sc2n1,-1.17,10.0,0.3,7.1,29.9,0.835,1.2
C=CCOC(=O)C1=C(C)NC(SC)=C(C#N)C1c1cccs1 (stereo not given),-2.35,2.0,8.8,7.0,19.7,-0.865,-7.0
COc1ccc(CCNc2ccncn2)cc1,0.91,5.0,-7.8,18.0,-3.8,0.492,9.0
O=C(CSc1ncnc2c1cnn2CCc1ccccc1)Nc1ccc(F)cc1,x,2.0,-2.0,-3.8,-3.8,-1.1,7.1
COC(=O)c1ccc(COc2ccccc2/C=N/NS(=O)(=O)c2ccc(C)cc2)cc1,-1.33,-11.0,9.4,-9.8,19.0,1.61,-5.8
CCN1CCc2c(sc(N)c2C(N)=O)C1,0.96,-3.0,-4.0,1.4,11.5,x,6.8
Cc1ccc(SCc2cc(=O)[nH]c(/N=C(\N)Nc3ccc(C)c(C)c3)n2)cc1,-0.08,-14.0,4.6,0.2,-1.2,-0.624,-0.5
COc1ccc(-n2c(N)c(C(=O)NCc3ccco3)sc2=S)cc1,-0.5,-15.0,1.3,10.4,2.8,-0.991,0.9
O=C(Nc1cccc(Cl)c1Cl)c1snnc1-c1ccccc1,-0.33,-8.0,x,0.0,-6.4,-1.17,x
Cc1ccnc(SCC(=O)Nc2sc3c(c2C#N)CCC(C(C)(C)C)C3)n1 (stereo not given),-0.07,-12.0,-14.6,-7.8,4.7,-0.722,12.4
CCN(CC)CCN1C(=O)Cn2c(C)c(C)c3cccc1c32,-0.28,3.0,-0.1,3.7,11.4,0.0429,4.2
CC(C)Cc1nc(N2CCN(C(=O)c3ccccc3)CC2)c(C#N)c2c1CCC2,-1.09,-8.0,-12.2,1.4,9.6,0.0684,13.4
COC(=O)c1sccc1-c1ccc(/C=N/OCc2c(Cl)cccc2Cl)o1,0.65,-15.0,4.3,6.5,-4.3,-0.417,-2.4
COc1ccc(S(=O)(=O)/N=C2/C=CC(=O)C(C)=C2C)cc1,0.05,4.0,-0.1,5.7,7.0,-1.41,4.2
CN(C)S(=O)(=O)Oc1cccc(C(=O)Nc2ccc(Cl)c(Cl)c2)c1,-2.71,-5.0,-1.6,10.3,36.3*,-0.401,5.6
Cn1nc(C(F)(F)F)c(C(=O)Nc2ccc(Cl)cc2)c1Cl,-0.48,1.0,-2.8,-3.4,8.4,0.969,7.9
Cc1ccc(OCCn2c(CCNC(=O)C(C)C)nc3ccccc32)cc1,0.77,2.0,1.4,1.0,-8.4,0.269,3.9
O=C(Cn1ncc2c1-c1ccccc1OC2)N1CCc2ccccc21,x,3.0,-3.9,-1.0,7.4,-1.14,2.9
Cc1cc(=O)oc(C)c1C(=O)NCc1ccccn1,0.67,2.0,6.5,10.1,-2.2,-0.0103,-8.0
CCOC(=O)c1ccc(NC(=O)CCOc2ccc(OC)cc2)cc1,0.29,0.0,14.9,-3.3,8.8,1.44,-12.5
Cc1oc(-c2ccccc2)cc1C(=O)Nc1ccc2ccccc2c1,0.39,-15.0,2.2,-0.3,0.0,-0.613,0.0
Cc1cccc(NC(=S)NC(=O)c2cc(-c3ccccc3)nc3ccccc23)c1,0.58,-20.0,-1.3,-1.6,10.0,-0.9,5.3
Cc1cccc(NC(=O)Cn2c(=O)n3nc(CCn4nc(C)cc4C)nc3c3ccccc32)c1,-0.49,-6.0,0.7,-2.1,13.8,0.61,-2.7
CC(NC(=O)OC1CCCCC1)N1C(=O)C2C3C=CC(C3)C2C1=O (stereo not given),1.9,32.0,-8.2,-2.4,-5.3,-1.51,5.9

# Reformatted with values under each structure: part of the list above.
# Values run as follows: PTK2B oligo ant, Ecoli WT expand, PTPN22 act, PostGolgi yeast, PostGolgi ctrl, DAT uptake mod, LYP inh 2
COC(=O)c1sccc1-c1ccc(/C=N/OCc2c(Cl)cccc2Cl)o1
→ 0.65, -15.0, 4.3, 6.5, -4.3, -0.417, -2.4
COc1ccc(S(=O)(=O)/N=C2/C=CC(=O)C(C)=C2C)cc1
→ 0.05, 4.0, -0.1, 5.7, 7.0, -1.41, 4.2
CN(C)S(=O)(=O)Oc1cccc(C(=O)Nc2ccc(Cl)c(Cl)c2)c1
→ -2.71, -5.0, -1.6, 10.3, 36.3*, -0.401, 5.6
Cn1nc(C(F)(F)F)c(C(=O)Nc2ccc(Cl)cc2)c1Cl
→ -0.48, 1.0, -2.8, -3.4, 8.4, 0.969, 7.9
Cc1ccc(OCCn2c(CCNC(=O)C(C)C)nc3ccccc32)cc1
→ 0.77, 2.0, 1.4, 1.0, -8.4, 0.269, 3.9
O=C(Cn1ncc2c1-c1ccccc1OC2)N1CCc2ccccc21
→ x, 3.0, -3.9, -1.0, 7.4, -1.14, 2.9
Cc1cc(=O)oc(C)c1C(=O)NCc1ccccn1
→ 0.67, 2.0, 6.5, 10.1, -2.2, -0.0103, -8.0
CCOC(=O)c1ccc(NC(=O)CCOc2ccc(OC)cc2)cc1
→ 0.29, 0.0, 14.9, -3.3, 8.8, 1.44, -12.5
Cc1oc(-c2ccccc2)cc1C(=O)Nc1ccc2ccccc2c1
→ 0.39, -15.0, 2.2, -0.3, 0.0, -0.613, 0.0
Cc1cccc(NC(=S)NC(=O)c2cc(-c3ccccc3)nc3ccccc23)c1
→ 0.58, -20.0, -1.3, -1.6, 10.0, -0.9, 5.3
Cc1cccc(NC(=O)Cn2c(=O)n3nc(CCn4nc(C)cc4C)nc3c3ccccc32)c1
→ -0.49, -6.0, 0.7, -2.1, 13.8, 0.61, -2.7
CC(NC(=O)OC1CCCCC1)N1C(=O)C2C3C=CC(C3)C2C1=O (stereo not given)
→ 1.9, 32.0, -8.2, -2.4, -5.3, -1.51, 5.9

# (list continues)
SMILES,PTK2B oligo ant,Ecoli WT expand,PTPN22 act,PostGolgi yeast,PostGolgi ctrl,DAT uptake mod,LYP inh 2
O=C(NC(Cc1c[nH]c2ccccc12)c1nnc2n1CCCCC2)c1ccc(Cl)cc1 (stereo not given),-0.78,8.0,3.7,0.9,2.2,0.362,-1.1
Cc1ccc(S(=O)(=O)/N=C(\c2ccc(Cl)cc2)N2CCOCC2)cc1,-0.33,1.0,-3.8,-5.1,10.4,-0.99,6.0
COCc1nnc(NC(=O)c2ccc(S(=O)(=O)N3CCCCCC3)cc2)o1,-0.71,4.0,6.7,-4.6,10.0,-0.407,-10.4
CC(=O)N(c1ccc2oc(=O)sc2c1)S(=O)(=O)c1cccs1,0,8.0,-5.3,-3.0,-2.7,0.136,3.6
c1ccc(-c2csc(N3CCc4ccccc4C3)n2)cc1,0.29,-15.0,11.7,-5.1,7.4,-1.22,-7.1
CCCC(=O)NC(Nc1ccccc1OC)C(Cl)(Cl)Cl (stereo not given),-0.78,-8.0,-0.1,4.3,5.5,3.21,3.9
